High-throughput results as filed in PubChem BioAssay.
hNpr1 antagonist = human Npr1 receptor antagonism | Potency, µM (titrated, usually from 46.3 µM), inactives show top-dose activity change, negative = inhibition, usual class: inhibitors | HEK293 hNpr1 GloSensor cGMP, ANP-stimulated luminescence | hit rate 1.6% among 76,000 | AID 1347048; active = well fitted inhibition curve with a large enough effect; inconclusive = small, poorly fitted or top-dose-only effect; inactive = no such curve, though single readings can be large or run the other way;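 also: nearly all actives have a fitted effect of over 60% in size; nearly all hits also lower the signal before the agonist is added; a reference antagonist and vehicle were the controls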
Target sequence (P16066 whole entry, looked up): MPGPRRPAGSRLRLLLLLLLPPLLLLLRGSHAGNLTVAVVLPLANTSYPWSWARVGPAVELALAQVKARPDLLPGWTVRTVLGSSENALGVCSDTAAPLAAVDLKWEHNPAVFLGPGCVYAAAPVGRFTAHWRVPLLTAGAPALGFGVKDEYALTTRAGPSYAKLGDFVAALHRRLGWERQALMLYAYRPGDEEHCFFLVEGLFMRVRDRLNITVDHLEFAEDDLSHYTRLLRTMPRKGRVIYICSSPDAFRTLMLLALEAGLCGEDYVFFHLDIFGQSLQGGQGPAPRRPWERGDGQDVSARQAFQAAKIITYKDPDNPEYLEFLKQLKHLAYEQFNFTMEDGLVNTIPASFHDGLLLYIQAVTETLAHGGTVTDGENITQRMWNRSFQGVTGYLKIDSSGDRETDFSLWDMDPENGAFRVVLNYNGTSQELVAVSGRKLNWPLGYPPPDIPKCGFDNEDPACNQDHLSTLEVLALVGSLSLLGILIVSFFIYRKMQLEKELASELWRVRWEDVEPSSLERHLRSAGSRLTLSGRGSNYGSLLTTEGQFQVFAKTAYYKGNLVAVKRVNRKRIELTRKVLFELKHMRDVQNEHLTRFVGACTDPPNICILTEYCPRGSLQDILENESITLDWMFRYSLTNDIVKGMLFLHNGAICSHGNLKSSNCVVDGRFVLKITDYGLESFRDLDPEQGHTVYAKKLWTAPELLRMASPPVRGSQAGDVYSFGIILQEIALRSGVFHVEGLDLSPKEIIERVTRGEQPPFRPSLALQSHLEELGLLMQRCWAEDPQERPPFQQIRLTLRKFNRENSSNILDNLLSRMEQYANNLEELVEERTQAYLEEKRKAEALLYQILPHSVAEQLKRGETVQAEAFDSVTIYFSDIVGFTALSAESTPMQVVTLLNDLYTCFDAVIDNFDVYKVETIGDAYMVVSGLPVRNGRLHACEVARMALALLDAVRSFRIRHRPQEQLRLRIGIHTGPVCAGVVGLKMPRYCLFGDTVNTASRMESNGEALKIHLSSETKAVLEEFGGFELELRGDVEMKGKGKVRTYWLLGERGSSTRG
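Compound pre-incubated 30 min at room temperature on GloSensor-loaded HEK293 cells stably carrying hNpr1 and the pGS-40F cGMP biosensor. Stimulation uses hNppA at 0.1 nM final; luminescence is taken at baseline and 20 min post-agonist.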
An asterisk follows results filed as active; & = joins results of further samples; [ ] = another dose, or the depositor's remark. % is scaled to controls: 0 for no effect and ±100 for the full control effect; potency is read from the fitted curve at half-maximal effect. These rows are one share of the data; count on the stated rates, not on these rows.

What do the screens show for `O=S(=O)(Cc1ccccc1)N1CCC2(CC1)CC(OCC1CC1)CCO2` (configuration not stated)?
hNpr1 antagonist: 4%

What do the screens show for `COCC(=O)N1CC[C@H](c2nnc(-c3ccc(C)cc3)o2)C1`?
hNpr1 antagonist: 2%[70.6 µM]

What do the screens show for `COc1ccc(-c2nc(-c3nnn4c3COC(c3ccccc3Cl)C4)no2)cc1OC` (configuration not stated)?
hNpr1 antagonist: -1%

Results for CCCN1CCN(C(=O)C2(c3ccc(NC(=O)C(C)C)cc3)CCCCC2)CC1 ?
hNpr1 antagonist: -1%

How did CCCc1nc(C(=O)N[C@@H]2[C@@H](Cc3ccccc3)[C@H]3OCC[C@@H]23)cs1 do in these assays?
hNpr1 antagonist: -3%

Results for CCN(CC)C(=O)[C@@H]1CCC[C@@H](NC(C)=O)CN(C)C(=O)C1 ?
hNpr1 antagonist: 0%[70.6 µM]

Results for NC(=O)c1cc(-c2ccccc2F)cc2c1OCCN2Cc1cccnc1 ?
hNpr1 antagonist: -18%[70.6 µM]

How did Cc1ccccc1C(=O)N1CCN(C(=O)c2nnn3c2COC(c2ccc(Cl)cc2)C3)CC1 (configuration not stated) do in these assays?
hNpr1 antagonist: inconclusive

Results for CCNC(=O)c1cccnc1OC1CCN(C(=O)C2CCOCC2)C1 (configuration not stated) ?
hNpr1 antagonist: 3%

What do the screens show for `COc1ccc([C@@H]2CN(c3nnnn3-c3ccccc3)C[C@H]2NC(C)=O)cc1`?
hNpr1 antagonist: inconclusive

What do the screens show for `O=c1n(-c2cccc(Cl)c2)nc2n1CCN(Cc1ccc(F)cc1)C2`?
hNpr1 antagonist: -22%

What do the screens show for `Cc1cccc(N2CCN(c3ncncc3-c3nc(-c4ccccc4)no3)CC2)c1`?
hNpr1 antagonist: -19%

Results for CC(C)N1CCC(OCCCNC(=O)CN2CC3CC(C2)[C@H]2CCCC(=O)N2C3)CC1 (some centres not stated) ?
hNpr1 antagonist: -5%

How did O=C1CC(c2ccccc2)N(C(=O)C2CC2)CCCN(C(=O)Cc2c[nH]c3ccccc23)CCN1 (configuration not stated) do in these assays?
hNpr1 antagonist: 8%

What do the screens show for `Cc1cnc(CCNC(=O)C2CCOCC2)n1C1CCCCCCC1`?
hNpr1 antagonist: -13%

What do the screens show for `CCc1cc(=O)n(CC(=O)Nc2ccc3c(c2)OCCO3)c(-c2cccc(F)c2)n1`?
hNpr1 antagonist: inconclusive

What do the screens show for `CC1(c2ccccc2)N(Cc2ccccc2)C(=O)OC12CCN(Cc1cccnc1)CC2` (configuration not stated)?
hNpr1 antagonist: -12%[70.6 µM]

What do the screens show for `O=C1CO[C@H]2CN(Cc3ncc[nH]3)C[C@H]2N1Cc1ccccc1`?
hNpr1 antagonist: 3%[70.6 µM]

How did CCOC(=O)CC1COCCN1C(=O)c1cn(Cc2ccc(F)cc2Cl)nn1 (configuration not stated) do in these assays?
hNpr1 antagonist: 0%

What do the screens show for `O=C(NC1CCCC1)c1cc2n(n1)CC(c1ccc3c(c1)OCO3)OC2` (configuration not stated)?
hNpr1 antagonist: -1%

Results for COCCNC(=O)CCCN1C(=O)COc2ccc(C(=O)COc3ccc(C)cc3OC)cc21 ?
hNpr1 antagonist: -8%

What do the screens show for `COCCN1C(=O)NC(c2ccccc2OC)C2=C1COC2=O` (configuration not stated)?
hNpr1 antagonist: -4%

What do the screens show for `CCc1noc(-c2cn(C3CCN(C(=O)c4cccc(NC(C)=O)c4)CC3)nn2)n1`?
hNpr1 antagonist: -2%

Results for CC(C)C[C@@H](NC(=O)[C@@]1(O)C[C@@H](O)[C@H](O)[C@@H](NC(=O)Nc2ccc(OC(F)(F)F)cc2)C1)C(N)=O ?
hNpr1 antagonist: 3%

Results for Cc1ccc(NC(=O)Cn2c(-c3ccc(F)cc3)nc(C)c(CCO)c2=O)c(Cl)c1 ?
hNpr1 antagonist: -13%

Results for CCOc1ccc2c(n1)CCN(C(=O)c1ccn(CC)n1)C2 ?
hNpr1 antagonist: 11%

What do the screens show for `NC(=O)[C@H](CC1CCCCC1)NC(=O)[C@@H]1CN(C(=O)Nc2ccccc2)CCN1C(=O)C1CCCCC1`?
hNpr1 antagonist: 0%

Results for COc1ccccc1NC(=O)N(C)CC1CCOCC1 ?
hNpr1 antagonist: 3%

Results for Cc1cc(C)cc(NC(=O)N2CC(C(=O)N(C)C)C3(CCOCC3)C2)c1 (configuration not stated) ?
hNpr1 antagonist: -8%

Results for Cc1nc(-c2cn(C3CCCN(C(=O)c4ccc5c(c4)OCO5)C3)nn2)no1 (configuration not stated) ?
hNpr1 antagonist: 2%

Filtered by structure, those above with an NH in an aromatic ring
How did O=C1CC(c2ccccc2)N(C(=O)C2CC2)CCCN(C(=O)Cc2c[nH]c3ccccc23)CCN1 (configuration not stated) do in these assays?
hNpr1 antagonist: 8%

What do the screens show for `O=C1CO[C@H]2CN(Cc3ncc[nH]3)C[C@H]2N1Cc1ccccc1`?
hNpr1 antagonist: 3%[70.6 µM]

Additional compounds
Results for COCCn1c(C)cnc1CCNS(=O)(=O)c1ccccc1 ?
hNpr1 antagonist: 7%

Results for O=C(NCCC1CCN(C(=O)Nc2ccccc2)CC1)c1ccccc1 ?
hNpr1 antagonist: 3%

How did Cn1cccc1C(=O)N1C[C@@H](F)C[C@H]1C(=O)N1CCCCC1 do in these assays?
hNpr1 antagonist: 9%

How did Cc1cc(C)n2ncc(C(=O)N3CCC(c4[nH]ncc4-c4ccccc4)CC3)c2n1 do in these assays?
hNpr1 antagonist: -2%

Results for O=C(Nc1ccc(Cl)cc1)c1nc2c(o1)CCN(Cc1nccs1)CC2 ?
hNpr1 antagonist: 2.2µM*

Results for CCCNC(=O)c1coc(COc2ccc3c(c2)C(c2ccc(C)cc2)N(C(=O)C2CC2)CC3)n1 (configuration not stated) ?
hNpr1 antagonist: -8%

How did COc1ccccc1CN1CCC(N2Cc3cnc(C)n3C2=O)CC1 do in these assays?
hNpr1 antagonist: 3%[70.6 µM]

How did O=C(NCc1ccc(-c2ccc(Cl)cc2)o1)C1NCCc2[nH]cnc21 (configuration not stated) do in these assays?
hNpr1 antagonist: 4%

How did COc1ccc(-c2nc3cc(C)ccc3cc2CN2CCCC(C#N)C2)cc1OC (configuration not stated) do in these assays?
hNpr1 antagonist: 1%

Results for COC(=O)c1cc2n(n1)CCCN(C(=O)c1ccc(OC)nc1OC)C2 ?
hNpr1 antagonist: 2%

How did O=C1CCN(C(=O)C2(c3ccccc3)CC2)CCCC(C(=O)NCc2ccccc2)CCN1 (configuration not stated) do in these assays?
hNpr1 antagonist: 2%

Results for F[C@@H]1CN(Cc2ccc3c(c2)OCCO3)C[C@@H]1OCc1nc2ccccc2[nH]1 ?
hNpr1 antagonist: -20%[70.6 µM]

Results for COc1ccc(NC(=O)c2nnn3cc(C)[nH]c(=O)c23)cc1OC ?
hNpr1 antagonist: -2%

What do the screens show for `CCNC(=O)N1CCCN(Cc2ccncc2)C(c2ccccc2)CC(=O)NCC1` (configuration not stated)?
hNpr1 antagonist: -1%

How did COC1CCN(C(=O)Cn2c3c(c(=O)n2Cc2ccccc2)CCN(Cc2ccccc2)C3)CC1 do in these assays?
hNpr1 antagonist: 3%

Results for COc1ccc(-n2nc(C3CCCN(C(=O)Cc4ccccn4)C3)[nH]c2=O)cc1 (configuration not stated) ?
hNpr1 antagonist: 0%

Results for Cc1ccoc1C(=O)N1CC(F)(F)C[C@H]1c1nnc(C2CC2)o1 ?
hNpr1 antagonist: 0%

Results for O=C(c1ccccc1F)N1CCCC(CO)(Cc2ccccc2F)C1 (configuration not stated) ?
hNpr1 antagonist: -6%

Results for CCN1C(=O)C2(CCN(S(=O)(=O)c3cc(Cl)ccc3OC)CC2)c2ccccc21 ?
hNpr1 antagonist: 1%

What do the screens show for `O=C1CC2(CCN(Cc3cccs3)CC2)Oc2cc(Cl)ccc21`?
hNpr1 antagonist: 0%&6%

How did Cc1cc(C)nc(N2CCN(C(=O)C3CC(=O)N(CC(C)C)C3)CC2)n1 (configuration not stated) do in these assays?
hNpr1 antagonist: -1%

Results for CC(C)CNC(=O)Nc1cccc(-c2ccc(N3CCC(C)CC3)nn2)c1 ?
hNpr1 antagonist: 7.1µM*

Results for CCC(c1cccs1)N1C(=O)[C@H]2CN(S(=O)(=O)c3cc(C)ccc3C)C[C@H]2C1=O (some centres not stated) ?
hNpr1 antagonist: -29%

How did Cc1ccc(S(=O)(=O)N2C[C@@H]3OCC(=O)N(Cc4ccc(F)cc4)[C@@H]3C2)cc1 do in these assays?
hNpr1 antagonist: -1%[70.6 µM]

How did CC(C)CCN1CC2(C1)NC(=O)c1ccccc1O2 do in these assays?
hNpr1 antagonist: 0%[70.6 µM]

Results for O=C(CC[C@H]1NC(=O)c2ccccc2NC1=O)Nc1cccc(-c2ncn[nH]2)c1 ?
hNpr1 antagonist: -5%

Results for O=C(N1CCOCC1)N1CCOC[C@H]1c1ncc(-c2ccc(OC(F)(F)F)cc2)[nH]1 ?
hNpr1 antagonist: 9%[70.6 µM]

How did COc1ccc2[nH]c(C(=O)N3C[C@@H](C(N)=O)[C@H](c4n[nH]c(C)n4)C3)cc2c1 do in these assays?
hNpr1 antagonist: -1%

How did CC(=O)N1CCN(c2ncnc3c2CN(c2ccc([N+](=O)[O-])cc2)C(=O)N(C)C3)CC1 do in these assays?
hNpr1 antagonist: 1%

Results for CCn1cc(S(=O)(=O)N2C[C@@H](Oc3cccnc3)C[C@H]2C(=O)NC)cn1 ?
hNpr1 antagonist: 3%

5 neighbouring records already listed, quoted:
Results for O=C(CC[C@H]1NC(=O)c2ccccc2NC1=O)Nc1cccc(-c2ncn[nH]2)c1 ?
hNpr1 antagonist: -5%

Results for O=C(N1CCOCC1)N1CCOC[C@H]1c1ncc(-c2ccc(OC(F)(F)F)cc2)[nH]1 ?
hNpr1 antagonist: 9%[70.6 µM]

How did COc1ccc2[nH]c(C(=O)N3C[C@@H](C(N)=O)[C@H](c4n[nH]c(C)n4)C3)cc2c1 do in these assays?
hNpr1 antagonist: -1%

How did CC(=O)N1CCN(c2ncnc3c2CN(c2ccc([N+](=O)[O-])cc2)C(=O)N(C)C3)CC1 do in these assays?
hNpr1 antagonist: 1%

Results for CCn1cc(S(=O)(=O)N2C[C@@H](Oc3cccnc3)C[C@H]2C(=O)NC)cn1 ?
hNpr1 antagonist: 3%

Further records follow.
Results for CCn1cc(-c2ccc(C)cc2)cc1C(=O)N1CCCN(C)CC1 ?
hNpr1 antagonist: -10%

How did O=C(NC1CCN(c2cc(-c3cccs3)[nH]n2)C1)c1cccc(Br)c1 (configuration not stated) do in these assays?
hNpr1 antagonist: -29%

How did CSCCNC(=O)c1cc(Br)cn2ccnc12 do in these assays?
hNpr1 antagonist: 11%&-2%[70.6 µM]

What do the screens show for `Cc1ccc(F)c(Nc2ncncc2-c2nc(-c3ccccc3)no2)c1`?
hNpr1 antagonist: 0%

How did N#CC1CCN(C(=O)C2CCCN(c3nc4ncccc4o3)C2)CC1 (configuration not stated) do in these assays?
hNpr1 antagonist: 21%[70.6 µM]

What do the screens show for `CN(C)Cc1ccc(C2CCCN2Cc2cccc3nonc23)cc1` (configuration not stated)?
hNpr1 antagonist: 5%

Results for Cn1cccc1C(=O)N1CCCC(C(=O)NCc2ccccc2)CCNC(=O)CC1 (configuration not stated) ?
hNpr1 antagonist: 1%

Results for O=C(c1ccccc1Cl)N1CCC2(CC1)Cc1ccccc1NC2=O ?
hNpr1 antagonist: 5%

What do the screens show for `Cc1ccc(S(=O)(=O)N2CCCC(Cn3c(C4CC4)nc4cccnc43)C2)cc1C` (configuration not stated)?
hNpr1 antagonist: 0%

How did O=C(Cc1cn2ccsc2n1)NC1CCOC2(CCOCC2)C1 (configuration not stated) do in these assays?
hNpr1 antagonist: 2%

What do the screens show for `Cc1cnc(C(=O)N2CCOc3ccc(CCC(N)=O)cc3C2)cn1`?
hNpr1 antagonist: 4%

What do the screens show for `Cc1nn2c(c1-c1ccccc1Oc1ccccc1)N(Cc1ccccc1O)CCC2`?
hNpr1 antagonist: 7.9µM*

How did Cn1ccnc1C(O)c1cc2n(n1)CCN(c1ncnc3nc[nH]c13)C2 (configuration not stated) do in these assays?
hNpr1 antagonist: 0%

What do the screens show for `COCC(=O)N[C@H]1C[C@@H](CO)N(Cc2cn[nH]c2-c2ccccc2)C1`?
hNpr1 antagonist: 1%

How did CN1CCC(Oc2ccc(NC(=O)c3ccncc3)cn2)C1 (configuration not stated) do in these assays?
hNpr1 antagonist: -1%

Structural class, the compounds so far with bromine.
How did O=C(NC1CCN(c2cc(-c3cccs3)[nH]n2)C1)c1cccc(Br)c1 (configuration not stated) do in these assays?
hNpr1 antagonist: -29%

How did CSCCNC(=O)c1cc(Br)cn2ccnc12 do in these assays?
hNpr1 antagonist: 11%&-2%[70.6 µM]

Next results follow:
Results for c1ccc2c(c1)CCC(N1CCN(Cc3cc4n(n3)CCCNC4)CC1)C2 (configuration not stated) ?
hNpr1 antagonist: 2%

Results for COC[C@@H]1CN(S(=O)(=O)c2ccccc2F)C[C@H]1c1nc(C)no1 ?
hNpr1 antagonist: 3%

How did O=C1CCN(S(=O)(=O)c2ccccc2)CCCC(C(=O)NCCN2CCOCC2)CCN1 (configuration not stated) do in these assays?
hNpr1 antagonist: -1%

Results for CCOc1ccc(C(=O)Nc2cccc(-c3nnc4n3CCCC4)c2)cc1 ?
hNpr1 antagonist: -25%

How did COc1ccc(C(=O)NC[C@@H]2C=C(C)[C@H](Cc3nnc(-c4ccncc4)o3)C[C@H]2C(C)C)cc1 do in these assays?
hNpr1 antagonist: inconclusive

What do the screens show for `CSc1ncc(CN2CCOC(Cc3cccc(C(F)(F)F)c3)C2)cn1` (configuration not stated)?
hNpr1 antagonist: 1%

Results for O=C(NC[C@H]1O[C@@H](CO)[C@@H](O)[C@H]1N1CCN(c2ccccn2)CC1)Nc1ccc(F)cc1F ?
hNpr1 antagonist: 6%

What do the screens show for `CCCCc1ccc(NC(=O)Cn2c(C)cc3nc4n(c(=O)c32)CCCCC4)cc1`?
hNpr1 antagonist: 5%
